# Bioassay records as filed in PubChem.
# eIF4H FP inh: inhibitors of RNA binding by human eIF4H; eIF4H fluorescence polarization binding assay; inhibition, % at 35 µM; 0.94% of 290,000 active; AID 2012;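 active = 50% or more with normal probe brightness, or confirmed in later tests; inconclusive = above 50% with abnormal brightness, or retests that disagree; inactive = below 50% or failed in later tests; about a fifth of its hits are not listed in these tables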;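 also: calls also rest on retests at 20 µM and on dose response follow-up; 0% = protein and probe with vehicle and 100% = probe without protein; strong numbers were not always called active; many hits fall short of the cut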
# CSC inhib: cancer stem cell inhibition; cancer stem cell-like cells viability, luminescence; inhibition, % at 7.5 µM; 1.1% of 300,000 active; AID 2717;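 active = mean at 75% or more and at least half the replicates too; inconclusive = mean and replicates disagree; tested in HMLE shEcad cells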;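 also: 0% = median of negative and 100% = median of positive control wells; the first replicate is given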
# PABP FP inh: PABP-poly(A) binding inhibition; inhibition, % at 35 µM; 1% of 290,000 active; P11940; PABP-poly(A) RNA binding, fluorescence polarization; AID 2014;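 active = 50% or more with normal probe brightness, or confirmed in later tests; inconclusive = above 50% with abnormal brightness, or retests that disagree; inactive = below 50% or failed in later tests; about a fifth of its hits are not listed in these tables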;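 also: calls also rest on retests at 20 µM and on dose response follow-up; controls were probe without protein and protein plus probe with vehicle; some compounds called inactive have numbers as strong as hits; many hits fall short of the cut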
# Target sequence (P11940 whole entry, looked up): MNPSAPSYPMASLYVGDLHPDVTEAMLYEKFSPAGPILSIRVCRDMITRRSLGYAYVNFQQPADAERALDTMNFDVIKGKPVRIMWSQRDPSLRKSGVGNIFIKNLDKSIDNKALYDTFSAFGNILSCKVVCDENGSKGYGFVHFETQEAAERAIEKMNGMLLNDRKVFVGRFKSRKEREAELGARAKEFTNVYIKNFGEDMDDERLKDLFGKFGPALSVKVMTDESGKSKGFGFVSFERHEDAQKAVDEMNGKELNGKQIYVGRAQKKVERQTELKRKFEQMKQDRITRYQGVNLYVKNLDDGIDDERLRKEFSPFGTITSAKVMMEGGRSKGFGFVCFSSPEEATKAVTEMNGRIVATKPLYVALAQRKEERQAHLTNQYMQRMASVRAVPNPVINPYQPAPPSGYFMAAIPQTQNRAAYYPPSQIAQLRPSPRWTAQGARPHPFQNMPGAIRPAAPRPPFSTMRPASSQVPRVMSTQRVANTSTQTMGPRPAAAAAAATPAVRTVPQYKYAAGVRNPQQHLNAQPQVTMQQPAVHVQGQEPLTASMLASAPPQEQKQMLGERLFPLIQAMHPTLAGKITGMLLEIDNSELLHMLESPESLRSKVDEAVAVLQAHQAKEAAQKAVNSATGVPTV
# Rce1 inh: blocks yeast Ras-converting enzyme; Q03530; yeast membranes, quenched prenylated peptide cleavage fluorescence; calls only; 0.27% of 290,000 active; AID 2563;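 active = fall in fluorescence gain of 50% or more versus controls, with final raw signal at or below 3038400; inconclusive = same 50% fall but final raw signal above 3038400; inactive = fall in fluorescence gain under 50%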;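 also: plate controls were neutral control wells for no effect and wells lacking membranes for full effect; tested at 10 µM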
# Target sequence (Q03530 whole entry, looked up): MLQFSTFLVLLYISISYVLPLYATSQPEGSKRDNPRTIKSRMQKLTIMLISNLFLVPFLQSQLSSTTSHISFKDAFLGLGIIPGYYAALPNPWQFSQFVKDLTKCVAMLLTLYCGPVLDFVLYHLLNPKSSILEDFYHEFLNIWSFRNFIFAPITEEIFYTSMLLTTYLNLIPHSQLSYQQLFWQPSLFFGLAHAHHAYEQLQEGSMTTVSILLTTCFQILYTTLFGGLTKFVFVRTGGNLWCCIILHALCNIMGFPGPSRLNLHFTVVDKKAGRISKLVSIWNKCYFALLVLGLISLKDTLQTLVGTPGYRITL
# Yeast UUG start: modulators of start codon recognition fidelity in yeast | activity score, % at 18.7 µM | S. cerevisiae UUG-firefly luciferase reporter, luminescence/redox ratio | 0.13% of 350,000 active;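 active = replicate mean at a twofold rise or more, about +100% in these data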;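 also: firefly luciferase made from a UUG start codon reports start codon fidelity; reporter light over untreated wells divided by growth signal over untreated wells; some hits fall short of that in this replicate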
# Env fusion inh: blocks HIV Env-driven cell-cell fusion; HeLa-JRFL Env/CEM21 cell fusion, luciferase; inhibition, % at 12.3 µM; 1.1% of 360,000 active;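 active = mean replicate inhibition score of at least 50 and every replicate individually at or above 50; inconclusive = only one of the two criteria met; inactive = mean below 50 and not all replicates reaching 50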;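 also: 0% = plate neutral controls and 100% = maraviroc near 300 nM; one replicate is shown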
# MT1-MMP act inh: inhibitors of human MT1-MMP activation; 0.061% of 360,000 active; GFP/RFP ratio change, % at 20 µM; AID 651647; P50281; HT1080 RFP-PRO-GFP cells, GFP/RFP ratio fluorescence, overnight; percent of plate control window, DMSO zero;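 active = GFP/RFP ratio change of at least 30% with cell ATP level not reduced by more than half and red fluorescence within 50% of control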; also: strong numbers were not always called active
#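 Assay system: HT1080 RFP-PRO-GFP cells. Benchmarks: DMSO vehicle wells and RFP-L50D-GFP reporter cell wells. Times: overnight cell settling, then overnight compound exposure, 37 °C, 5% CO2. Compound: 20 µM single dose, 1% DMSO. Read-out basis: GFP/RFP fluorescence ratio.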
# eIF4H FP inh retest: also measured in eIF4H FP inh; calls as there; inhibition, %; compound at 20 µM; confirmation average;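 mean of two retest wells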
# PABP FP inh retest: second read-out of PABP FP inh, no call of its own (marks repeat the call); inhibition, %; compound at 20 µM; confirmation repeats;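 mean of two retest wells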
# MT1-MMP act inh RFP: recorded beside MT1-MMP act inh, whose call it bears; RFP signal change, %; measured here: RFP expression control read;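 0 = vehicle wells; hits needed this value within 50% of zero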
# An asterisk follows results filed as active; i = inactive; ? = inconclusive; nt = not tested or not shown; + = active, no number; & = joins results of further samples.
SMILES,eIF4H FP inh,CSC inhib,PABP FP inh,Rce1 inh,Yeast UUG start,Env fusion inh,MT1-MMP act inh,MT1-MMP act inh RFP,others
Cc1noc(C)c1COC(=O)c1ccc(S(=O)(=O)NCc2ccco2)cc1,-16,11,-2,i,-6,nt,-2,-7,
CCOc1ccc(NC(=O)CN(C)C(=O)c2sc3ccccc3c2Cl)cc1OCC,nt,nt,nt,i,-5,5,3,-1,
Cc1cc(C)nc(Nc2ccccc2Cl)n1,0,-25,0,i,-5,-12,-3,3,
O=C(NCc1cccc(C(F)(F)F)c1)c1cccc(S(=O)(=O)N2CCN(Cc3ccccc3)CC2)c1,5,15,-3,i,-17,nt,3,-10,
COc1ccc(O)c(CN2CCC(n3nccc3NC(=O)CCOc3ccccc3)CC2)c1,-20,-7,2,i,-1,-6,4,0,
COCC(COS(N)(=O)=O)Cc1ccccc1 (stereo unspecified),7,-6,2,i,-22,14,3,5,
CCCCn1c(SCC(=O)N(CC)C2CCS(=O)(=O)C2)nnc1C(CC)N(C)C (stereo unspecified),-6,-7,-7,i,5,-11,2,5,
COc1cc(-c2cc(NC(C)=O)c3ncc(-c4ccc(F)cc4)n3c2)cc(OC)c1OC,nt,nt,nt,nt,-9,26,-2,3,
CCc1nc(NCCN)c(C#N)c2c1CSC(C)(C)C2,-3,-4,-1,i,-10,nt,3,-1,
CCc1nc(SCC(=O)Nc2cc(OC)ccc2OC)c2c(C)c(C)sc2n1,-3,nt,4,i,2,4,-7,-10,
Cc1ccc(Nc2nc3ccccc3[nH]2)nc1,2,-1,-1,i,-28,-231,19,7,
COc1ccc(N2CCN(c3ncnc4scc(-c5ccccc5)c34)CC2)cc1,-10,35,-5,i,-15,35,-2,-17,
CCOc1ccc(C(=O)NCCC2=CCCCC2)cc1OCC,-4,5,5,i,nt,-11,7,4,
COC(=O)/C=C/c1cccc([C@H]2[C@@H]3C=CC[C@@H](C)[C@@H]3C(=O)N2Cc2ccccc2)c1,nt,nt,nt,nt,8,-8,-7,-9,
Cc1c(N(C)C(=O)C2CCCN2S(=O)(=O)c2ccccc2)c(=O)n(-c2ccccc2)n1C (stereo unspecified),-5,2,2,i,-20,nt,-3,2,
Cc1ccc2cccc(OCC(=O)N3CCc4ccccc43)c2n1,4,6,30,i,-8,16,0,-1,
CC(NC1CCCC1)C(=O)Nc1ccccc1-c1ccccc1 (stereo unspecified),-2,10,-2,i,-12,-20,4,2,
CCOc1ccc(N(C(=O)CNC(=O)c2ccco2)C(C(=O)NC2CCCC2)c2ccco2)cc1 (stereo unspecified),-9,5,6,i,-1,1,-3,-1,
O=C(CCn1nc(-c2ccccc2)c2ccccc2c1=O)Nc1cccnc1,-2,-11,3,i,nt,5,1,0,
Cc1ccccc1NC(=O)Cc1nc(COC(=O)CCOc2ccccc2)cs1,-12,6,-12,i,-6,-2,0,6,
CCCOc1ccc(NC(=O)c2cc3cc(C)ccc3[nH]2)cc1,-2,-4,6,i,-5,-31,0,0,
CC(C)(Cc1ccccc1)NC(=O)C(=O)c1cn(CC(=O)N2CCOCC2)c2ccccc12,-10,8,-5,i,-7,5,2,3,
COc1cc(C=O)ccc1OCC(=O)N1CCOCC1,0,nt,7,i,-8,-22,-10,-1,
COc1ccc(-c2[nH]ncc2/C=N\NS(=O)(=O)c2ccc(Cl)cc2)cc1,12,-3,2,i,-21,nt,1,-1,
COC(=O)c1cccc(NC(=O)c2cc3ccccc3o2)c1,0,-7,-2,i,-13,-148,1,-1,
Cc1c(N(C)C(=O)c2ccccc2F)c(=O)n(-c2ccccc2)n1C,2,nt,0,i,-5,nt,-1,-4,
O=C(CCCOc1ccccc1)Nc1nncs1,-8,-17,-3,i,-11,-183,-2,-2,
CN(C)S(=O)(=O)N1CCC(CO)(Cc2cccc(C(F)(F)F)c2)CC1,0,-15,-10,i,nt,24,-1,-3,
CS(=O)(=O)N(CC(=O)Nc1ccccc1C(=O)NCc1ccccc1)c1ccc2c(c1)OCCO2,55,0,26,i,-3,26,-4,2,eIF4H FP inh retest=5;PABP FP inh retest=11
CCN(CC)CCCNC(=O)Cn1nc(-c2ccccc2)ccc1=O,7,4,2,i,-8,-88,0,1,

# Molecules listed so far containing a thiophene ring, fused or not (3):
SMILES,eIF4H FP inh,CSC inhib,PABP FP inh,Rce1 inh,Yeast UUG start,Env fusion inh,MT1-MMP act inh,MT1-MMP act inh RFP,others
CCOc1ccc(NC(=O)CN(C)C(=O)c2sc3ccccc3c2Cl)cc1OCC,nt,nt,nt,i,-5,5,3,-1,
CCc1nc(SCC(=O)Nc2cc(OC)ccc2OC)c2c(C)c(C)sc2n1,-3,nt,4,i,2,4,-7,-10,
COc1ccc(N2CCN(c3ncnc4scc(-c5ccccc5)c34)CC2)cc1,-10,35,-5,i,-15,35,-2,-17,

# More compounds.
SMILES,eIF4H FP inh,CSC inhib,PABP FP inh,Rce1 inh,Yeast UUG start,Env fusion inh,MT1-MMP act inh,MT1-MMP act inh RFP,others
O/N=C/c1cn(-c2ccc(Cl)cc2)nn1,-7,0,-17,i,nt,-16,2,2,
COc1ccc2nc(SCC(=O)/C(C#N)=C(\C)N)[nH]c2c1,2,-17,1,i,-25,nt,-2,-1,
NC(=O)c1nsc(C(=O)N(CC(=O)NCc2ccccc2)c2ccc(F)cc2)c1N,-7,-13,-8,i,-2,2,0,3,
O=C(Nc1ccc(Cl)cc1)c1ccc(Br)cc1F,-9,-3,-4,i,nt,-102,4,-1,
COc1ccc2oc(=O)c(C(=O)NCc3ccccn3)cc2c1,-2,5,1,i,-15,nt,7,3,
CN(C)CCOC(c1ccc(Cl)cc1)c1ccccn1 (stereo unspecified),-6,0,17,i,-18&-7,-9&4,-3&-2,-2&5,
Cc1ccc(C)c(N(CC(=O)NCCSCc2ccco2)S(C)(=O)=O)c1,7,-4,33,i,-18,nt,-7,1,
CS(=O)(=O)N(CC(=O)NCC1CCCO1)Cc1ccc(Cl)cc1 (stereo unspecified),-8,-7,-11,i,-15,nt,1,4,
COc1cc(C=C2C(=O)OC(C)(C)OC2=O)ccc1OCC(=O)Nc1ccccc1,-5,-2,-10,i,nt,-44,-1,0,
COCC(=O)Nc1cc(Cl)ccc1C,5,nt,8,i,nt,0,1,3,
O=C(COC(=O)c1cc(S(=O)(=O)NCc2ccccc2)ccc1O)c1cc2ccccc2o1,5,-2,-2,i,-17,-6,0,-4,
C=CCNC(=O)Nc1ccc2nc(C)sc2c1,1,-10,-2,i,nt,-14,2,5,
CCCCn1ccnc1C(=O)c1ccc(S(=O)(=O)N2CCCC2)cc1,-2,-6,-14,i,-13,8,-4,-3,
Cn1cc(S(=O)(=O)N2CCCC(C(=O)O)C2)cn1 (stereo unspecified),2,11,-14,i,-28,?,1,2,
O=c1[nH]c2ccc(NC(=S)Nc3ccc(F)cc3)cc2[nH]1,2,2,8,i,-17,18,0,-1,
O=C1/C(=C\c2cc([N+](=O)[O-])ccc2O)SC(=S)N1Cc1ccc(Cl)cc1,?,104*,?,i,-11,15,9,46,
Cc1cc(Cl)c(S(=O)(=O)NCc2cccnc2)cc1OCC(N)=O,-2,5,2,i,-28,nt,10,6,
CC(NCc1ccc2c(c1)OCO2)c1ccccc1 (stereo unspecified),-1,-2,-2,i,-15,8,0,-1,
Cn1c(=O)cc(SCC(=O)NCCC2=CCCCC2)c2cc(Cl)ccc21,5,nt,9,i,-9,nt,0,0,
CCCCN(C)CCCNC(=O)CC1Oc2ccccc2NC1=O (stereo unspecified),-8,-4,6,i,-15,-19,-3,1,
CC(C)[C@H](NC(=O)c1ccco1)C(=O)OCC(=O)N1CC(=O)Nc2ccccc21,-3,-10,1,i,nt,-20,1,0,
O=C(CSc1nc2cc(Cl)ccc2s1)NC1CCCc2ccccc21 (stereo unspecified),-5,3,-10,i,nt,26,-3,-5,
COC(=O)Nc1nnc(/C=C/c2ccccc2)s1,4,-4,6,i,nt,-13,0,0,
O=C(COc1ccccc1)N1CCc2ccccc2C1,-3,nt,-1,i,2,-109,1,-1,
Nc1nc(N2CCN(C(=O)c3ccco3)CC2)nc2ccccc12,-6,-14,-11,+,nt,-28,3,2,
Cc1ccc(CNc2nc(NCC3CC3)nc3ccsc23)c(C)c1,nt,nt,nt,nt,-14,45,-3,-20,
O=C(O)CCn1c(=O)[nH]c2ccccc2c1=O,-10,2,2,i,1,-12,1,4,
CCN(CC)S(=O)(=O)c1ccc(/C=C/C(=O)Nc2ccc(F)cc2F)cc1,3,-3,11,i,-12,36,-3,-28,
O=C(Nc1ccccc1C(=O)NC1CC1)c1ccccc1,nt,-15,nt,nt,-5,-4,-3,-1,
COC(=O)Cc1ccc(NC(=S)N2CCN(c3cccc(O)c3)CC2)cc1,-7,-14,9,i,nt,20,4,-13,
O=c1cc(/N=C/c2coc3cc(Br)ccc3c2=O)[nH]c(=S)[nH]1,52,5,18,i,-6,1,-1,-2,eIF4H FP inh retest=-1;PABP FP inh retest=5
COc1ccc(CN(C(=O)CN2C(=O)C(C)Oc3ccccc32)C2CCCC2)c(OC)c1 (stereo unspecified),2,-5,8,i,1,nt,-2,-10,
CC(C)C(=O)NC(NC(=S)Nc1ccc(S(N)(=O)=O)cc1)C(Cl)(Cl)Cl (stereo unspecified),7,-12,2,i,nt,nt,1,4,
CC(C(=O)N1CCN=C1c1ccccc1)N1C(=O)c2ccccc2C1=O (stereo unspecified),0,-15,-6,i,0,3,-2,2,
CCOC(=O)Cc1ccc(NS(=O)(=O)c2ccc(SC)cc2)cc1,6,8,18,i,9,nt,6,-6,
O=C(CNS(=O)(=O)c1ccccc1)NCC(=O)OCc1ccc(Cl)cc1,-5,-14,3,i,-10,-5,0,3,
CCOc1nc(-c2ccccc2)ccc1-c1noc(-c2ccc(OC)c(OC)c2)n1,nt,nt,nt,nt,-17,1,6,3,
O=C(O)[C@H]1CCCC[C@H]1C(=O)Nc1cc([N+](=O)[O-])ccc1F,5,-12,-2,i,-7,5,1,2,
O=C(N=C1SC2CS(=O)(=O)CC2N1Cc1ccc(F)cc1)C1CCCO1 (stereo unspecified),-15,11,-7,i,-22,9,3,4,
COc1ccccc1-n1cnnc1SCC(=O)c1ccc[nH]1,1,-14,-7,i,-23,nt,-2,2,
O=C(CCOc1ccccc1)Nc1ccccc1[N+](=O)[O-],2,-5,0,i,nt,16,5,1,
Cc1nn(-c2ccc(F)cc2)c(Cl)c1/C=C(\CCC(=O)O)c1nc2ccccc2s1,1,?,10,i,-14,15,6,7,
O=c1oc(-c2cccc([N+](=O)[O-])c2)nc2ccccc12,-2,-5,12,i,-28,-26,4,1,
CCn1cc(C(=O)NCC2CCCO2)c(=O)c2cc(S(=O)(=O)N(C)C3CCCCC3)ccc21 (stereo unspecified),-9,8,-23,i,-1,-3,-1,3,
CCOC(=O)C1CCCn2c1nc1sc3c(c1c2=O)CCCC3 (stereo unspecified),3,-18,2,i,-8,-18,-2,2,
COc1cc(C(=O)NCC(=O)NCCN2C(=O)S/C(=C\c3ccccc3Cl)C2=O)cc(OC)c1OC,nt,-11,nt,i,-7,nt,1,-3,
COc1ccc(C(CC(=O)O)NS(=O)(=O)c2ccc3c(c2)N(C(C)=O)CC(C)O3)cc1 (stereo unspecified),-12,-12,0,i,-11,1,2,4,
CCS(=O)(=O)N1N=C(c2ccc(NS(C)(=O)=O)cc2)CC1c1ccccc1 (stereo unspecified),8,nt,-7,i,-12,-28,-32,-4,

# Not a hit list; overall some 2.9% were active at least once.
